Assay outcomes from PubChem BioAssay.
KSHV LANA nucl – inhibitors of KSHV LANA-nucleosome binding, primary screen, biochemical, fluorescence polarization, FITC-LANA1-23, chicken nucleosomes; FITC-LANA1-23 / chicken nucleosome fluorescence polarization; active compounds read low; z-score (no concentration beside the values); 0.3% of 51,000 active; AID 720717, 2013;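 active = both repeat wells score below -2 in polarization z-score versus plate sample wells, excluding overly bright wells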;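 also: 100 nL library stock added to about 30 µL; numbers are from one replicate; some results filed as inactive read as strong as hits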
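Assay system: purified chicken nucleosomes with FITC-labelled LANA N-terminal peptide (1-23) / Probe or stimulus: 50 nM FITC-LANA1-23 probe / Compound dosing: pin-transferred compound, 100 nL / Times: compound with peptide–nucleosome mix 10–45 min at room temperature / Technique: fluorescence polarization, 480 nm excitation, 535 nm parallel and perpendicular emission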
BasE inh – BasE siderophore enzyme inhibitors, primary screen, biochemical, Acinetobacter baumannii ATCC 17978, fluorescence polarization; 0.1% of 84,000 active; AID 485350, 2010; purified BasE, fluorescence polarization binding displacement; inhibition, % (no concentration beside the values);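 active = both replicates above 25% with normal brightness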;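 also: 0% = negative plate control signal and 100% = positive plate control signal; stock transfer was 100 nL into about 30 µL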
* hit, by the source's call; nt = no result given; & = joins results of further samples.

Every second line gives: KSHV LANA nucl, BasE inh
CC(C)Cn1c(=O)c2ccccc2n2c(CCC(=O)Nc3ccccc3)nnc12
    3.3, 0.0
O=C(NC1CCCCCC1)C1CCN(S(=O)(=O)c2cccc3nonc23)CC1
    0.34, 1.0
CCCCc1c(O)nc(Nc2nc(C)c3cc(C)c(C)cc3n2)[nH]c1=O
    -1.1, 3.5
Cc1ccc(Nc2nc(N)nc(COC(=O)C3=COCCO3)n2)cc1
    nt, -1.5
O=C(CSc1nc2[nH]c(=O)cc(O)c2s1)Nc1ccccc1
    0.089, -2.9
CC(C)(C)C(=O)OC[C@H]1O[C@@H](n2cnc3c(=O)[nH]cnc32)C[C@@H]1O
    -0.095, 2.4
CCn1c(=N)n(CCOc2ccc(Cl)cc2)c2ccccc21
    -0.68, -5.0
COc1ccc(NC(=O)c2ccc3c(c2)N(C)CCS3)cc1
    -0.037, -2.6
C=CC[C@@H]1C=C(C)C[C@H](C)C[C@H](OC)[C@H]2O[C@@](O)(C(=O)C(=O)N3CCCC[C@H]3C(=O)O[C@H](/C(C)=C/[C@@H]3CC[C@@H](O)[C@H](OC)C3)[C@H](C)[C@@H](O)CC1=O)[C@H](C)C[C@@H]2OC
    0.099, nt
FC(F)Sc1nnc(-c2ccccc2)n1-c1ccccc1
    -1.1, -1.5
CN(C)/C=C(\Sc1ncccn1)C(=O)c1ccc(Cl)cc1
    0.018, 1.6
Cc1cccc(N2CCCC2=Nc2ccc(Br)cc2C#N)c1
    -0.91, 2.0
Cc1ccc(C)c(N2CCN(C(=O)NC3CCCCC3)CC2)c1
    0.35, -0.4
CCc1ccc(NC(=O)C2CCN(C(=O)c3ccccc3C)CC2)cc1
    nt, 1.1
Cc1ccccc1-c1nnc(CN2CCC(C)CC2)o1
    -0.24, 0.2
CC1CCN(C(=O)CS(=O)(=O)Cc2ccccc2)CC1
    -0.52, -1.7
Cc1ccc(S(=O)(=O)NC(=O)NN2CC3CCCC3C2)cc1 (stereo not given)
    0.31&0.32&-0.22, 0.3&2.8
CC(C)N(Cc1ccc(C(=O)O)o1)C(C)C
    0.24, -2.0
O=C(c1cc2ccccc2oc1=O)N1CCCc2ccccc21
    -1.2, 3.3
Cc1cnc(C(=O)OCC(=O)NCC2CCCCC2)cn1
    nt, 1.8
c1ccc(CCCNc2ncccn2)cc1
    -0.02, -1.1
CCN1CCCC1CNC(=O)Nc1ccc2c(c1)N(C)C(=O)c1ccccc1S2 (stereo not given)
    0.17, -9.3
NC(=O)CSCc1cc(Cl)c2c(c1)OCCCO2
    nt, 0.9
Cc1c(OCC(F)(F)F)ccnc1CS(=O)c1nc2ccccc2[nH]1 (stereo not given)
    -0.014&0.66&-0.18&-0.6, -2.0&-3.3
Cc1ccc(NC(=O)C(CC(C)C)NC(N)=O)cc1Cl (stereo not given)
    nt, -4.6
c1ccc2oc(CCc3nc4ccccc4o3)nc2c1
    -0.75, -0.4
COc1ccc(-c2nnc(SCC(=O)N(C)C)n2C2CCCCC2C)cc1 (stereo not given)
    nt, -0.3
COc1ccc(-n2cnc3nc(C)c(C(=O)/C=C/N(C)C)c(-c4ccccc4)c32)cc1
    nt, 0.9
Cc1c(Cc2ccccc2)c(=O)oc2cc3oc4c(c3cc12)CCCC4
    nt, 0.0
CC1CCN(c2ccc(C(F)(F)F)cn2)CC1
    nt, 2.4
O=S(=O)(c1ccc(I)cc1)N1CCCCCC1
    0.33, 0.1
C=CCN(S(=O)(=O)c1ccc(Cl)cc1)S(=O)(=O)c1ccccc1OC
    nt, 5.5
C=CCn1c(COc2ccccc2OC)nc2ccccc21
    nt, -0.1
O=C1CS(=O)(=O)CN1c1ccc(C(F)(F)F)cc1
    -0.078, nt
O=S(=O)(c1ccc(-c2ccno2)s1)N1CCCC1
    -0.097, 0.4
Nn1c(SCCOc2ccccc2)nnc1-c1ccccc1
    nt, -1.3
COc1ccc(C2CCCCCN2C(=O)Cc2noc3ccccc23)cc1 (stereo not given)
    nt, -0.1
CC(=O)Nc1ccc(C(=O)Nc2ccc(S(C)(=O)=O)cc2)cc1
    nt, -0.2
COC(=O)c1cc(S(=O)(=O)NCC2CCN(CCc3cccs3)CC2)cn1C
    0.66, -0.4
Cc1c(C(=O)N2CCN(Cc3nc4ccccc4s3)CC2)oc2ccccc12
    nt, 0.2
CC(C)C(NS(=O)(=O)c1ccccc1)C(C)C
    0.057, -1.0
CC1(C)CC(=O)C2=C(C1)NC(=S)NC2C1CCCCC1 (stereo not given)
    0.98, 1.0
CCOC(=O)c1[nH]cnc1C(=O)N1CCOCC1
    0.057, 0.5
COc1ccc(CC(C(=O)Nc2ccccc2)C(C)C(=O)O)cc1 (stereo not given)
    -0.1, 3.0
CC(=O)Nc1nccc(-c2cc(-c3cccc(C(F)(F)F)c3)no2)n1
    nt, 1.1
COCCn1c(C)cc(O)c(C(c2ccncc2)N2CCCCC2)c1=O (stereo not given)
    1.5, -0.5
COCCN1CN(S(=O)(=O)c2ccccc2)c2nc3ccccc3nc21
    -0.33, -0.5
CC1=NN(C(=O)C(C)C)C(O)(C(F)(F)F)C1 (stereo not given)
    0.22, -2.1
O=C(CC12CC3CC(CC(C3)C1)C2)NCC(=O)Nc1cccnc1
    nt, 2.6
CC1(C(=O)Nc2cccc(Br)c2)CC(=O)N=C2C=CC=CN21 (stereo not given)
    -0.051, 0.5

The listing continues:
Every second line gives: KSHV LANA nucl, BasE inh
CCOc1ccccc1C(=O)N=C1NC(=O)CS1
    0.27, -0.8
CSC(=NC#N)/N=c1/nc(SC)n(C)n1C
    nt, 2.6
CS(=O)(=O)c1ccc2c(c1)sc1nc(-c3ccccc3Cl)cn12
    nt, -2.9
C=CCNC(=S)N/N=C1\CC2CC=CC12 (stereo not given)
    nt, 1.6
O=C(Nc1cccc(OC(=O)N2CCOCC2)c1)N1CCCCC1
    0.22, -0.5
C=CCNc1nc2c(C)cccn2c(=O)c1/C=C1\SC(=S)NC1=O
    nt, -36
COc1ccc(-n2cc(C(=O)NCCc3c[nH]c4ccccc34)nn2)cc1
    1.2, 1.2
CCCCSC1=NC(C)(C)Nc2ccccc21
    nt, 0.8
CN(CC(=O)Nc1cccc2ccccc12)C(=O)C1=COCCO1
    nt, -1.5
CCC(CO)n1c(SCn2nnc3ccccc3c2=O)nc2cc(OC)c(OC)cc2c1=O (stereo not given)
    nt, -2.1

3 structures already listed, ordered by SMILES length, ascending:
Every second line gives: KSHV LANA nucl, BasE inh
CSC(=NC#N)/N=c1/nc(SC)n(C)n1C
    nt, 2.6
CS(=O)(=O)c1ccc2c(c1)sc1nc(-c3ccccc3Cl)cn12
    nt, -2.9
CCC(CO)n1c(SCn2nnc3ccccc3c2=O)nc2cc(OC)c(OC)cc2c1=O (stereo not given)
    nt, -2.1

(continued)
Every second line gives: KSHV LANA nucl, BasE inh
COC(=O)c1cc(-c2ccc(Cl)cc2)n[nH]1
    0.26, 0.7
O=C(COC(=O)C1CCCCN1S(=O)(=O)c1ccccc1)Nc1ccccc1C(=O)NC1CC1 (stereo not given)
    nt, -0.2
COC(=O)CCSc1nc2c3ccccc3ncn2n1
    nt, -1.2
O=C(CNc1ccc(Cl)cc1)N1CCN(c2ccccc2)CC1
    nt, 1.9
CC(C)n1c(C(F)(F)F)nc2cc(C(=O)N3CCOCC3)ccc21
    nt, 1.2
CC(C)(C)OC(=O)N1CCN(c2ccc(NC(=O)c3ccco3)cc2)CC1
    -0.43, 0.3
COc1ccc(Sc2ccccc2COC(C)=O)c(C(=O)O)c1
    nt, 1.8
c1ccc(CNC2=NCCCCC2)nc1
    nt, 1.4
CC(C)C(=O)N(C)c1nnc(-c2ccc(F)cc2)s1
    -0.74, -1.3
C=CCn1c(=O)c(C(=O)NC)c(O)c2ccccc21
    0.025, -2.7
CCOCC(=O)NCc1ccccc1Cl
    0.31, 0.6
Cc1ccc(-n2nc(C)c(C(=O)N3CCN(c4ncccn4)CC3)n2)c(C)c1
    nt, 1.5
CCCCNC(=O)C1CC(=O)N(CCc2ccccc2)C1 (stereo not given)
    1.1, 1.1
C=CCn1c(O)c(C2=c3cc(Br)ccc3=NC2=O)c2ccccc21
    nt, -0.2
O=C(CSc1nnnn1C1CCCC1)N1CCCC1
    1.1, -1.8
CCCCN(C)S(=O)(=O)c1ccc(-c2ccc(=O)[nH]n2)o1
    nt, 0.6
Cc1ccc(S(=O)(=O)N2CCC(C(=O)OCc3cc(=O)n4cc(C)ccc4n3)CC2)cc1
    nt, -2.7
O=COC1CCCCC1NS(=O)(=O)c1ccccc1 (stereo not given)
    nt, 0.2
NC(=NCc1ccccc1)NS(=O)(=O)c1ccccc1
    0.32, -1.7
COc1cccc2cc(-c3ccc(F)cc3)c(=O)oc12
    -0.27, 1.9
CSc1ccccc1C(=O)OCC(=O)NC1CCCC1
    nt, 0.5
COc1ccc(NC(=O)c2ccccc2NC(=O)c2ccco2)cc1
    -0.21, 2.4
Cc1ccc(C(c2nnnn2C2CCCC2)N2CCc3ccccc32)cc1 (stereo not given)
    2.3, 0.6
NC(=O)COC(=O)c1ccc(Cl)cc1
    nt, 3.1
CC(C)(C)C(=O)/C=C/c1ccco1
    1.7, -8.4
Cc1cc(C)n(-c2nnc3n2N=C(c2c[nH]c4ccccc24)CS3)n1
    -0.56, 0.2
O=S(=O)(NCc1ccc2c(c1)CCO2)c1ccc(C(F)(F)F)cc1
    0.92, -0.6
CC(C)COc1cccc(OCC(=O)NC(C)C(=O)O)c1 (stereo not given)
    nt, 2.0
CON(C)S(=O)(=O)c1ccc(C(=O)O)cc1
    nt, -0.4
Cc1cccc(C)c1NC(=O)Cn1nnc(C(=O)NCc2ccccc2Cl)c1N
    nt, 0.4
CCOC(=O)c1ccc(NC(=O)c2ccc(NC(=O)C3CCCO3)cc2)cc1 (stereo not given)
    -0.48, 0.3
Cc1c(C(=O)NCc2ccc(N3CCN(C)CC3)cc2)cnn1-c1ccc(Cl)cc1
    nt, 1.5
CCc1c(CSC(=N)N)csc1C
    -0.085, -4.1
CC1CC2(NC(=O)NC2=O)C(C)CN1C (stereo not given)
    -1.5, 0.7
COc1cc(/C=N/N=C(N)N)ccc1OC(=O)c1ccc(C)cc1
    0.66, -46
Nc1sc(-c2ccccc2)c(Cc2ccccc2)c1C(=O)O
    nt, 0.9
O=C(CSc1ccccc1)N/N=C/c1ccccc1O
    0.63, 2.3
Cc1oc(-c2ccc(C(=O)NCCN3CCCCC3)cc2)nc1COc1ccccc1
    -1.2, -54
O=C(Cc1cn2ccsc2n1)N/N=C1/CCSc2ccc(F)cc21
    nt, -1.5
COc1cccc2c1OCc1sc3[nH]c(=S)[nH]c(=O)c3c1-2
    1.5, 7.7
CC(C)OC(=O)CSc1nnc(-c2ccccc2)n1Cc1ccco1
    -1.9, 1.5
C[C@@H]1CCC2[C@](C)(CO)[C@@H](O)CC[C@]2(C)[C@@]12CCC1(COC(=O)C1)O2 (stereo not given in full)
    0.041, -2.5
NC(=O)c1ccccc1OCCOc1ccccc1
    nt, 1.3
C=CCNC(=S)NCc1ccccc1
    -0.1, 1.6
Cc1noc(C)c1NC(=O)NC(c1ccccc1)c1ccccc1
    -0.93, -1.2
Clc1cccc(C(c2nnc(-c3ccccc3)o2)N2CCN(c3ccccc3)CC2)c1 (stereo not given)
    1.2, -1.8
CCCn1c(SCC(=O)N2CCCC2)nnc1C(C)C
    -1.1, 1.3
Cc1ccc2c(Cl)c(C(=O)N(Cc3cccs3)C3CCS(=O)(=O)C3)sc2c1 (stereo not given)
    nt, -0.7
Cc1ccc(S(=O)(=O)CCSC(=N)N)cc1
    0.21, 0.1
O=C(O)CC(c1ccccc1Br)N1Cc2ccccc2C1=O (stereo not given)
    1.4, nt

(more compounds)
Every second line gives: KSHV LANA nucl, BasE inh
C=CCn1c(C)cc(C(=O)COC(=O)COc2ccccc2C#N)c1C
    nt, -0.7
CCC(C)(C)NCC(=O)Nc1ccccc1Br
    nt, -1.2
COc1ccc(NC(=O)CN(C)C2CCCc3ccccc32)c(OC)c1 (stereo not given)
    nt, 2.4
CN(C(=O)CSc1nc2cc(C(=O)O)ccc2c(=O)n1Cc1ccccc1)C1CCS(=O)(=O)C1 (stereo not given)
    nt, -2.6
Cc1cccc(NC(=O)COC(=O)Cn2cnc3ccccc3c2=O)c1
    nt, -2.7
CN(C(=O)COc1nnc(-c2cccs2)c(-c2cccs2)n1)c1ccccc1
    nt, 1.1
CSC(SC)=C1C(=O)OC(C)(C)OC1=O
    0.13, 3.9
CCOC(=O)c1cnc(SCC(=O)OCN2C(=O)c3ccccc3C2=O)nc1N
    nt, -0.9
Cc1cccc(NC(=O)C2CCCN(c3cnccn3)C2)c1 (stereo not given)
    -0.35, -0.7
CCCCCCSc1nnc(/N=C/NO)s1
    -1.4, nt
O=C(NCC1CCCO1)c1cc2c(=O)n3ccccc3nc2s1 (stereo not given)
    -0.042, 3.9
Nc1nonc1-n1nnc(C(=O)N/N=C/c2ccncc2)c1-c1ccccc1
    -0.84, 0.2
CC12CCC(=O)N1C(C(=O)Nc1cccc3ccccc13)CS2 (stereo not given)
    nt, 1.1

Three of the entries above in order of the KSHV LANA nucl value, descending.
SMILES | KSHV LANA nucl
O=C(NCC1CCCO1)c1cc2c(=O)n3ccccc3nc2s1 (stereo not given) | -0.042
Nc1nonc1-n1nnc(C(=O)N/N=C/c2ccncc2)c1-c1ccccc1 | -0.84
CCCCCCSc1nnc(/N=C/NO)s1 | -1.4

Some of the compounds tested; rates above refer to the full screens.
